Compound activity: PubChem, ICCB-Longwood Screening Facility, Harvard Medical School
Sa helicase inh = S. aureus DNA helicase inhibition; purified S. aureus helicase, fluorescence unwinding assay; about half of the hits fall short of the stated cut; inhibition, %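 (tested at about 80 µM)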; 120,000 tested, 0.05% active; AID 485395;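 active = both duplicates at 50% or more, or one of them with a favoured structure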;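 note: 0% = mean of negative control wells and 100% = mean of positive control wells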
MgrA DNA FP = alters Staphylococcus aureus MgrA binding to DNA | fluorescence polarization | inhibition, %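 (about 10 µg/mL by stock and volumes)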 | 84,000 tested, 0.13% active;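 active = above 50% in either of two replicates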;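 note: 0% = protein plus DNA without compound and 100% = DNA alone without protein; higher means less MgrA bound to DNA so lower polarization; one replicate is shown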
An asterisk follows results filed as active; x = no result given. Some of the compounds tested. The share of hits here may be higher or lower than overall.

SMILES	Sa helicase inh	MgrA DNA FP
Cc1cccc(NC(=O)c2cc3c(ccc4ccccc43)oc2=O)c1	18	x
NC(=O)COC(=O)c1ccc(Br)o1	7	1.6
CC(C)NS(=O)(=O)c1ccc(OCC(N)=O)cc1	-3	-1.2
O=C1CCCN1c1ccc(S(=O)(=O)N2CCCCC2)cc1	4	-1.2
COCCN1C(=O)c2oc3ccc(Br)cc3c(=O)c2C1c1ccc(Cl)cc1 (stereo unspecified)	14	x
N#CN=C(N)CSc1nc(-c2ccccc2)cc(-c2ccccc2)c1C#N	7	2.3
O=C(Nc1ccn([C@H]2CC[C@@H](CO)O2)c(=O)n1)c1ccccc1	-13	x
CC1(C)CC(NC(=O)NCc2ccc3c(c2)OCO3)CC(C)(CNC(=O)NCc2ccc3c(c2)OCO3)C1 (stereo unspecified)	0	-0.7
CC1CCCCN1S(=O)(=O)c1ccc(S(=O)(=O)NCc2ccc(F)cc2)cc1 (stereo unspecified)	-6	0.5
Cn1c(=O)c(C(=O)NCCc2ccccc2)cc2cccnc21	-6	x
CC1CCCC(NC(=O)COC(=O)Cc2cccs2)C1C (stereo unspecified)	6	x
Cc1cc(/C=N/n2c(SCC(=O)O)nnc2-c2ccoc2C)cc(C)c1O	-4	x
O=C(NCc1ccccc1)NC(=O)c1ccccc1I	10	6.0
CCCn1c2ccccc2c2nnc(SCCCC(=O)c3ccc4c(c3)OCCO4)nc21	8	-0.3
Cc1ccc(-c2onc(C)c2C)cc1S(=O)(=O)NCCC1=CCCCC1	-2	x
CC1CCN(C(=O)COC(=O)c2n[nH]c3ccccc23)CC1	-4	-1.7
O=C(NCc1ccccn1)/C(=C/c1ccccc1Cl)c1ccccc1	-4	0.2
COc1ccc(C2Nc3ccccc3C(=O)N2c2ccc(Cl)cc2)cc1COc1ccc(NC(C)=O)cc1 (stereo unspecified)	x	2.8
OC(c1ccccc1)c1oc2ccccc2c1-c1cnn(-c2ccccc2)c1 (stereo unspecified)	12	-0.1
CC(C)(C)CC(=O)NCc1nc(-c2ccc(Cl)cc2)no1	17	x
CCOc1ccc(N2C(=O)CC(NC3CCN(c4ncccn4)CC3)C2=O)cc1 (stereo unspecified)	9	-7.4
CC(C)CC(NC(=O)Cc1ccsc1)C(=O)NN (stereo unspecified)	x	0.8
Cc1ccc(Oc2ccc([N+](=O)[O-])cn2)c([N+](=O)[O-])n1	x	2.7
CSc1nc(C)nc(Nc2ccc(Cl)cc2Cl)c1C#N	1	x
O=C(c1ccccc1)c1cnc(Nc2ccccc2)s1	x	-0.8
Cc1cc(Oc2ccccc2)nc(Oc2ccc(=O)[nH]n2)n1	15	x
COc1ccc(OCc2cc(=O)[nH]c3ccccc23)cc1	-6	-3.8
O=C(O)c1cc2nc(C3CC3)cc(C(F)(F)F)n2n1	8	-7.2
COc1ccc(N(Cc2cc(-c3ccco3)on2)S(=O)(=O)c2cc(C)ccc2C)cc1	-5	x
CCn1c(=O)n(CC)c2cc(S(N)(=O)=O)ccc21	-7	x
COc1ccc2cc(CCNC(=O)Cc3ccccc3)c(=O)[nH]c2c1	-19	x
COc1ccc2nc(Cl)c(CNCCN(C)C)c(N3CCCCC3)c2c1	23	-4.0
CCOC(=O)C1=C(C)NC(=S)NC1c1c(F)cccc1Cl (stereo unspecified)	12	5.2
O=C(O)/C=C/C(=O)Nc1ccccc1OC(F)(F)F	x	0.2
O=C(N/N=C/c1c(O)ccc2ccccc12)C1CC12CCC2 (stereo unspecified)	1	-0.2
O=C(CSc1nc(-c2ccccc2)cs1)N1CCOCC1	20	3.2
O=C(COc1ccc(-c2nnco2)cc1)NCc1ccco1	-1	x
Cc1cccc(Cl)c1NC(=S)NN	x	0.2
CC1CCN(c2nc(N3CCCCC3)nc(N3CCCCC3)n2)CC1	14	-0.2
COC(=O)c1[nH]c2ccc(F)cc2c1N	4	1.1

Exported with two lines to a compound: part of the list above.
Sequence of screens: Sa helicase inh, MgrA DNA FP
- Cc1cccc(Cl)c1NC(=S)NN
→ x, 0.2
- CC1CCN(c2nc(N3CCCCC3)nc(N3CCCCC3)n2)CC1
→ 14, -0.2
- COC(=O)c1[nH]c2ccc(F)cc2c1N
→ 4, 1.1

Next part
SMILES	Sa helicase inh	MgrA DNA FP
CCOC(=O)c1ccc(CN)o1	11	x
Cc1cc(NCc2cccnc2)nc(N)n1	x	1.5
COc1ccccc1/C=C/C(=O)OCC(=O)Nc1ccc(Cl)cn1	0	x
O=C(Nc1ccccc1)N1CCN(c2ccc(C(F)(F)F)cn2)CC1	4	-2.0
Cc1cc(C)c(C#N)c(SCC(=O)Nc2sc3c(c2C#N)CCC(C(C)(C)C)C3)n1 (stereo unspecified)	2	-1.0
Cc1sc2nc(SCC(=O)NCCCN3CCOCC3)n(-c3ccccc3)c(=O)c2c1C	x	-1.1
O=C(N/C(=C\c1ccc2c(c1)OCO2)C(=O)N1CC2CC(C1)c1cccc(=O)n1C2)c1ccccc1F (stereo unspecified)	15	x
S=C(NC1CC1)N1CCN(c2ccc(Cl)cc2)CC1	1	-2.0
CC(C)C(=O)Oc1ccc2c3c(c(=O)oc2c1)CCC3	-37	x
S=C(Nc1ccccc1)NC1CC2CCCC(C1)N2C1CC1 (stereo unspecified)	3	-0.9
O=C(NC(=S)Nc1ccccc1Cl)c1cnn2c(C(F)(F)F)cc(C(F)(F)F)nc12	x	-0.1
O=C(On1c(-c2ccccc2F)nc2ccccc2c1=O)c1ccccc1Cl	x	-0.1
Cc1ccc(S(=O)(=O)N2CCC(C)CC2)cc1	5	-1.6
N#C/C(=C/c1ccccc1N1CCN(Cc2ccccc2)CC1)S(=O)(=O)c1ccccc1	x	-2.8
CCOc1cc(/C=C2/SC(=O)NC2=O)ccc1Oc1ccc([N+](=O)[O-])cc1[N+](=O)[O-]	x	-2.3
Cc1ccc(NC(=O)N2CCC(N(C)C(C)C)CC2)cc1C	1	-0.7
O=C(/C=C/c1ccccc1)Oc1nc2ccccc2s1	-15	1.2
CC(C)(C)c1cc(NC(=O)CC#N)c(C(N)=O)s1	x	-5.0
NC[C@@H]1CC[C@@H](N)[C@@H](O[C@H]2[C@H](O)[C@@H](O[C@H]3O[C@H](CO)[C@@H](O)[C@H](N)[C@H]3O)[C@H](N)C[C@@H]2N)O1	x	0.1
CCOC(=O)c1sc(SCc2ccc(Cl)cc2)c2c1CCCC2=O	x	0.3

Fetched one by one from the list above, two records:
SMILES	Sa helicase inh	MgrA DNA FP
Cc1cc(NCc2cccnc2)nc(N)n1	x	1.5
CCOc1cc(/C=C2/SC(=O)NC2=O)ccc1Oc1ccc([N+](=O)[O-])cc1[N+](=O)[O-]	x	-2.3

Remaining list, next part:
SMILES	Sa helicase inh	MgrA DNA FP
CCc1n[nH]c(=S)n1/N=C1\C(=O)N(CC(C)C)c2ccccc21	1	x
CCOC(=O)C1=CC2c3ccc(Br)cc3C=CC2OC1=O (stereo unspecified)	13	0.9
CN(Cc1ccccc1)c1ncnc2c1nc1n2CCCCC1	-25	x
CC(C)N=C(NC#N)NC(C)C	22	x
O=C(NCC1COc2ccccc2O1)c1n[nH]c(=O)c2ccccc12 (stereo unspecified)	10	x
O=C(Oc1ccccc1)Oc1cccc2ccccc12	16	x
CSc1nc(-c2ccccc2)cc(=O)[nH]1	x	1.8
COc1cc(C2Nc3ccccc3NC3=C2C(=O)CC(c2ccc(OC)c(OC)c2)C3)ccc1O (stereo unspecified)	x	0.1
CSc1nc2ccc([N+](=O)[O-])cc2s1	x	-1.1
COC(=O)C(CCCN1C(=O)c2ccccc2C1=O)(NC(C)=O)c1nnn(C)n1 (stereo unspecified)	19	x
Cn1cnc(S(=O)(=O)NCc2ccc3c(c2)OCO3)c1	0	x
O=C(/C=C/c1ccc(S(=O)(=O)N2CCOCC2)cc1)N(CCO)Cc1ccccc1	22	x
CS(=O)(=O)c1cccc(C(=O)Nc2nccs2)c1	-7	x
C=CCn1c(C)cc(C(=O)CSc2nc(O)cc(=O)n2CCC)c1C	17	x
CCCCS(=O)(=O)Nc1ccc2c(c1)ncn2C1CCCCC1	-17	1.9
CCc1ccnc(NS(=O)(=O)c2ccc3c(c2)OCCCO3)c1	x	-2.9
O=C(NC(=S)Nn1cnnc1)c1ccc(F)cc1Cl	-4	x
CSc1ncnc2nc[nH]c12	x	-0.5
O=C1c2ccccc2C(=O)N1CNCC(O)c1ccccc1 (stereo unspecified)	1	-2.5
COc1cccc(C(=O)/C=C2\NC(=O)CS2)c1	x	0.4
c1cncc(-c2nnc(-c3cccnc3)nn2)c1	5	17
CN(CCC#N)C(=O)Cn1nc(Cc2cccnc2)c2ccccc2c1=O	17	x
N#Cc1ccc(C2Nc3cc(Cl)ccc3O2)cc1 (stereo unspecified)	x	-2.5
CC(NC(=O)CCc1nc2ccccc2[nH]1)c1ccccc1 (stereo unspecified)	8	-1.4
O=C(Cn1ncc2ccsc2c1=O)NCCc1ccccc1	-15	x
O=C1N(c2ccccc2)C(c2ccc(C(F)(F)F)cc2)C1(F)F (stereo unspecified)	-7	x
CC12CCC(C1)C(C)(C)C2OCC(O)CN1CCN(c2cccc(Cl)c2)CC1 (stereo unspecified)	15	x
COc1ccc(C2CC(=O)C3=C(C2)NC(C)=C(C#N)C3c2ccc(N(C)C)cc2)cc1 (stereo unspecified)	-6	x
O=C(CNCc1ccccc1F)Nc1ccc(N2CCCC2)cc1	1	-5.6
O=C1Nc2ccc(F)cc2C1=NCC1CC1	x	2.3
CN(C)CCCSC(=N)N	x	1.6
CC(=O)c1sc2ccccc2c1C	x	-3.4
O=C(NCCc1ccccc1)c1cc2ccccn2n1	11	-1.7
CCn1nc(-c2cccs2)cc1C(=O)NC(C)C	x	-0.8
CC1CCCCC1NC(=O)CSc1nnc(CN2CCCC2=O)o1 (stereo unspecified)	8	x
O=C(NC(CO)C(=O)O)c1ccncc1 (stereo unspecified)	18	-2.5
N#CCc1nc2ccccc2n1C(=O)CCN1C(=O)c2ccccc2C1=O	-1	x
COc1ccc(NC(=O)c2ccc3c(c2)C(=O)N(Cc2cccnc2)C3=O)cc1	2	2.2
O=c1c[n+]([O-])c2ccccc2n1OCc1ccccn1	3	5.7
Cn1c(=O)n(C)c2cc(/C=C3\SC(=Nc4ccccc4)N(c4ccccc4)C3=O)ccc21	x	0.8

Whole records from above. Screens in order: Sa helicase inh, MgrA DNA FP
c1cncc(-c2nnc(-c3cccnc3)nn2)c1 is entered as 5, 17
O=C(CNCc1ccccc1F)Nc1ccc(N2CCCC2)cc1 is entered as 1, -5.6
O=C1Nc2ccc(F)cc2C1=NCC1CC1 is entered as x, 2.3
COc1ccc(C2CC(=O)C3=C(C2)NC(C)=C(C#N)C3c2ccc(N(C)C)cc2)cc1 (stereo unspecified) is entered as -6, x
N#Cc1ccc(C2Nc3cc(Cl)ccc3O2)cc1 (stereo unspecified) is entered as x, -2.5

Going on with the list:
SMILES	Sa helicase inh	MgrA DNA FP
O=C(CCCn1c(=O)c2cccn2c2ccccc21)NCCc1ccccc1	4	-0.8
CC1(C)CC(=O)C2=C(C1)OC1=C(C(=O)CC(C)(C)C1)C2c1cccc(O)c1	-32	x
O=C(NCc1ccco1)c1ccc2c(=O)n(-c3ccccc3)c(=O)n(CC(=O)N3CCN(c4ccccc4)CC3)c2c1	-28	x
CCOc1ccc(-n2c(=O)c3c4c(sc3n(CC(=O)NCC3CCCO3)c2=O)CCCC4)cc1 (stereo unspecified)	-1	-1.6
COC(=O)c1ccccc1NC(=O)C1CCCC1	12	4.8
Cc1cc(C)c(C#N)c(OC(C)C)n1	x	-1.3
Cc1nn(-c2ccc(Cl)cc2)c2sc(C(=O)N(C)C3CCCCC3)cc12	-8	x
CC(=O)c1ccccc1OC(=O)c1ccc([N+](=O)[O-])o1	x	2.2
Cn1c(CN2CCCC2)nc2cc(NC(=O)c3ccccc3)ccc21	24	x
COc1ccc(/C=C2\N=C(c3cc([N+](=O)[O-])ccc3Cl)OC2=O)c(OC)c1OC	x	-1.7
O=C(O)CCc1ccc(-c2ccc(F)cc2)n1CCC(=O)O	10	11
N#C/C=C(\Cl)c1ccccc1	3	2.3
Cc1ccc(C2=NC3(CCN(C(=O)c4ccccc4)CC3)NC2=O)cc1	-25	x
O=C(O)c1cnn(-c2ccccc2)c1-n1cccc1CNCc1ccccc1	9	-5.0
Cc1ccc(C(=O)O)cc1NC(=O)CN1CC(=O)Oc2ccccc21	-24	x
CC1=C(C)CC2C(=O)N(C(Cc3ccccc3)C(=O)O)C(=O)C2C1 (stereo unspecified)	x	-4.1
O=C(CNC(=O)c1ccc2c(c1)OCO2)NC1CC1	7	x
O=C(Cn1nc(Cc2ccncc2)c2ccccc2c1=O)NCc1ccccc1	19	-0.8
CN1CCN(c2nc3nonc3nc2Nc2ccc(F)cc2)CC1	x	-1.6
CN1CCN(S(=O)(=O)c2ccc3oc(=O)c4ncn(C)c4c3c2)CC1	-25	x
CCCCn1cnc2sc3c(c2c1=N)CCCCC3	7	0.3
CN1CCN(NC(=O)COc2ccc(Br)cc2Cl)CC1	10	0.4
CCOc1ccc(C(=O)Nc2cc(C)ccn2)cc1	-18	-1.2
CNC(=S)NNC(=O)C(CCSC)NC(=O)c1ccc(C(F)(F)F)cc1 (stereo unspecified)	x	-2.1
O=C(O)c1ccccc1N=Cc1ccccc1Cl	1	-0.7
CCOC(=O)N1CCC(NC(=O)c2cc3c(-c4ccc(Cl)cc4)nn(C)c3s2)CC1	-9	x
Cc1ccc(-c2noc(CCC(=O)NC3CC3)n2)cc1	12	x
NC(=O)C1CCN(c2nc(Nc3ccc(Cl)cc3)nc(Nc3ccc(Cl)cc3)n2)CC1	-46	x
O=c1[nH]c(CN2CCC(Cc3ccccc3)CC2)nc2ccccc12	9	x
CCN1C(=O)c2ccc(-c3ccc(/C=C4/C(=O)N(c5ccc(C(=O)O)cc5)N=C4C)o3)cc2C1=O	x	-4.3
O=C1c2cccc3cccc(c23)N1CN1CCc2ccccc2C1	9	1.1
COc1ccc(Br)c(-c2nnc(-c3ccccc3NC(=O)NC(=O)c3ccccc3Cl)o2)c1	x	-1.7
